Cruzain Triton – inhibitors of Trypanosoma cruzi cruzain with detergent. P25779. purified cruzain, Z-FR-AMC fluorescence, 0.01% Triton. Potency, µM, for inactives: max response, negative = inhibition, usual class: inhibitors. 200,000 compounds, 0.43% hits;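 also: plate controls were neutral wells for no effect and buffer without enzyme for full effect; nearly all actives have a fitted effect of over 40% in size; top concentration of the series not given in the record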
Target sequence (P25779 123-467 limits assumed): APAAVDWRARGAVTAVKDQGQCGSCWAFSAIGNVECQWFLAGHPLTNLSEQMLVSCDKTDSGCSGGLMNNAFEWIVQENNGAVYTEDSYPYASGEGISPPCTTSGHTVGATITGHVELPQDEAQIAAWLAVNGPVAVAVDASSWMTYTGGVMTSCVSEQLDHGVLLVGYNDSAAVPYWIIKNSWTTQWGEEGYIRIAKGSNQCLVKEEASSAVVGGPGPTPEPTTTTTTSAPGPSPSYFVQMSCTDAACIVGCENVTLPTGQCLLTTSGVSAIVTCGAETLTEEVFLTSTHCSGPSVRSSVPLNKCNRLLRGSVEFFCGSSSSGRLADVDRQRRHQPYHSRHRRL
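Sodium acetate buffer (100 mM, pH 5.5) containing 5 mM DTT and 0.01% Triton X-100 hosted 1.5 nM cruzain and test compound for 15 min at room temperature. Cleavage of 2 uM Z-FR-AMC was then tracked by fluorescence.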
SARS PLP yeast – inhibitors of SARS-CoV papain-like protease in yeast; S. cerevisiae expressing SARS-CoV PLpro, growth rescue; control for the full effect not named in the record; Potency, µM (top dose mostly 32.9 µM), inactives show at the top dose activity, positive = growth rescue; 330,000 compounds, 0.19% hits; active means well fitted rising curve with a large enough effect; inconclusive means small, poorly fitted or top-dose-only effect; inactive means no such curve, though single readings can be large or run the other way; also: 0% is about no effect; nearly all actives have a fitted effect of over 55% in size; growth read by luminescence after 48 h
RE007 growth inh – less growth of the S. pombe RE007 Vpr strain | Potency, µM (doses to about 92.2 µM), inactives show at the highest dose activity change, negative = less growth | 360,000 compounds, 0.21% hits | S. pombe RE007 Vpr strain, BacTiter-Glo ATP luminescence, 24 h; control for the full effect not named in the record; active = well fitted falling curve with a large enough effect; inconclusive = small, poorly fitted or top-dose-only effect; inactive = no such curve, though single readings can be large or run the other way;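 also: % is scaled to controls: 0 for no effect and ±100 for the full control effect; nearly all actives have a fitted effect of over 50% in size; the assay follows cell death caused by Vpr and the record does not say whether a fall means rescue or toxicity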
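Fission yeast RE007 carrying one integrated HIV-1 vpr copy, seeded at OD 0.01 in PMG+AL medium with 23 nL pinned compound. Grown 24 h at 30 degrees; viability read by BacTiter-Glo luminescence after 5 min.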
Marburg entry inh – Marburg virus entry inhibition | Marburg virus pseudotyped entry inhibition, cell reporter; control for the full effect not named in the record; about a third of the inactives were read at about 46 µM | Potency, µM (doses to about 37.8 µM), inactives show at the top dose activity change, negative = inhibition, most hits filed as inhibitors | 300,000 compounds, 1.8% hits | AID 540276; active = well fitted inhibition curve with a large enough effect; inconclusive = small, poorly fitted or top-dose-only effect, or effect the other way; inactive = flat fitted curve, though single readings scatter; tested in HEK293 cells; about a fifth of its hits are not listed in these tables; also: % is scaled to controls: 0 for no effect and ±100 for the full control effect; luciferase read-out
Lassa entry inh – Lassa virus entry inhibition | Lassa virus pseudotype entry inhibition, cell reporter; control for the full effect not named in the record | Potency, µM (highest dose often 37.9 µM), for inactives: at the top dose activity change, negative = inhibition, hits mostly inhibitors | 300,000 compounds, 1.2% hits; active means well fitted inhibition curve with a large enough effect; inconclusive means small, poorly fitted or top-dose-only effect, or effect the other way; inactive means flat fitted curve, though single readings scatter; tested in HEK293 cells; also: % is scaled to controls: 0 for no effect and ±100 for the full control effect; nearly all actives have a fitted effect of over 50% in size; luciferase read-out
Cruzain noTriton – cruzain (T. cruzi) inhibition without detergent; purified cruzain, Z-FR-AMC fluorescence, no detergent; Potency, µM, without a hit: max response, negative = inhibition, most hits filed as inhibitors; 200,000 compounds, 2.3% hits; AID 1476;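 also: plate controls were enzyme without inhibitor for no effect and buffer without enzyme for full effect; nearly all actives have a fitted effect of over 40% in size; top concentration of the series not given in the record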
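Detergent-free condition (0.00005% Triton X-100) in acetate buffer pH 5.5 with DTT. 1.5 nM enzyme and compound were pre-mixed 15 min, then 2 uM Z-FR-AMC substrate added; reaction progress from fluorescence change between first and third reads (60 s).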
StopGo reporter – FMDV 2A StopGo reporter, luciferase signal; 410,000 compounds, 1.2% hits; human cells with a luciferase reporter of 2A StopGo recoding; control for the full effect not named in the record; Potency, µM (highest dose often 57.9 µM), for the others: top-dose signal change, negative = less light; AID 1159524; active = well fitted falling curve with a large enough effect; inconclusive = small, poorly fitted or top-dose-only effect; inactive = no such curve, though single readings can be large or run the other way; tested in HEK293T cells; also: % is scaled to controls: 0 for no effect and ±100 for the full control effect; nearly all actives have a fitted effect of over 45% in size; luciferase light after 4 h
NS1 function inh – inhibitors of influenza NS1 protein function; Potency, µM (doses to about 46.1 µM), without a hit: at the highest dose activity, positive = more growth; AID 2326; S. cerevisiae slowed by influenza A NS1, growth recovery by OD600; 270,000 compounds, 0.4% hits; active means well fitted rising curve with a large enough effect; inconclusive means small, poorly fitted or top-dose-only effect; inactive means no such curve, though single readings can be large or run the other way; also: nearly all actives have a fitted effect of over 50% in size
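Growth recovery, yeast-based: influenza A NS1 expressed in S. cerevisiae causes slow growth, and suppressors are detected by OD600. The parent strain without NS1 is used as positive control.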
Numbers without * were called inactive; & = joins results of further samples; ! = repeats disagree; [ ] = another dose, or the depositor's remark. Unless noted, calls follow the shape of the dose curve; as a rule, active = well fitted curve in the direction sought with a large enough effect; inconclusive = small, poorly fitted or top-dose-only effect, or another doubt; inactive = no such curve, though single readings can be large; an effect the other way counts as inactive or inconclusive. Potency is read from the fitted curve at half-maximal effect. A portion of the library; rates above refer to the full screens.

For Cc1cccc(N2CCN(C(=O)CCC(=O)NNc3nc4ccccc4c4nc(C)nn34)CC2C)c1 (stereo not drawn) the results were Cruzain Triton 3.1%, Marburg entry inh -16%[46.1 µM], Lassa entry inh 8%[46.1 µM], Cruzain noTriton inconclusive and StopGo reporter inconclusive.
`O=C(CCCCCn1c(=O)c2sccc2n(CC(=O)Nc2cccc(Cl)c2)c1=O)NCc1ccc2c(c1)OCO2` gave Cruzain Triton -1.6%, Marburg entry inh inconclusive, Lassa entry inh -12%[46.1 µM], Cruzain noTriton -19% and StopGo reporter -20%.
Screening COc1ccc(C[C@H]2COC(=O)[C@@H]2Cc2ccc(OC3OC(CO)C(O)C(O)C3O)c(OC)c2)cc1OC (stereo partly drawn) returned Cruzain Triton 0.9%, SARS PLP yeast -1%, RE007 growth inh 1%, Marburg entry inh -44%, Lassa entry inh -13%, Cruzain noTriton -1%, StopGo reporter 0% and NS1 function inh -15%.
Screening O=C(Cn1c(=O)n(Cc2ccco2)c(=O)c2oc3ccccc3c21)Nc1ccccc1 returned Cruzain Triton -4.0%, Lassa entry inh -4%[46.1 µM], Cruzain noTriton -30% and StopGo reporter -34%.
Screening NC(N)=O returned Cruzain Triton -0.3%&3.4%, RE007 growth inh 7%, Cruzain noTriton -1%&-3% and StopGo reporter -23%&9%.
`CCCCCC(=O)O[C@]1(C(C)=O)CC[C@H]2[C@@H]3CCC4=CC(=O)CC[C@]4(C)[C@H]3CC[C@@]21C` gave Cruzain Triton -2.8%, SARS PLP yeast -11%, RE007 growth inh 3%[18.4 µM], Marburg entry inh 10µM*, Lassa entry inh -18%, Cruzain noTriton 12%, StopGo reporter 0% and NS1 function inh 1%.
NOCC(=O)O was read as Cruzain Triton 6.8%, SARS PLP yeast inconclusive, RE007 growth inh -11%[18.4 µM], Marburg entry inh inconclusive, Lassa entry inh 21%, Cruzain noTriton 12%, StopGo reporter -19% and NS1 function inh inconclusive.
O=C(CSc1nc2ccccc2n1Cc1cccc(Cl)c1)N1CCN(c2ccc(F)cc2)CC1 was read as Cruzain Triton 8.1%, Marburg entry inh 18%[46.1 µM], Cruzain noTriton 10% and StopGo reporter inconclusive.
CCCCNc1ccc(C(=O)OCCOCCOCCOCCOCCOCCOCCOCCOCCOC)cc1 was read as Cruzain Triton -1.4%, RE007 growth inh 2%[18.4 µM], Cruzain noTriton inconclusive and StopGo reporter -20%.
Screening CCCCn1cnc2cc(NCc3ccccc3Cl)ccc21 returned Cruzain Triton -21%, Marburg entry inh 13µM*, Lassa entry inh inconclusive, Cruzain noTriton -18% and StopGo reporter -2%.
Screening COc1ccc(Cn2c(SCc3ccc(C(=O)NC4CCCC4)cc3)nc3ccncc32)cc1 returned Cruzain Triton -7.2%, Marburg entry inh inconclusive, Lassa entry inh -12%[46.1 µM], Cruzain noTriton 2% and StopGo reporter inconclusive.
COc1ccc(-c2cn3cccnc3n2)cc1NC(=O)c1cc(C)cc(C)c1 was read as Cruzain Triton -3.6%, Lassa entry inh -28%[46.1 µM], Cruzain noTriton 4% and StopGo reporter -19%.
For C1COC(NC(C2CC2)C2CC2)=N1 the results were Cruzain Triton -2.0%&-5.0%&-3.0%&-4.2%, SARS PLP yeast -2%, RE007 growth inh -17%, Marburg entry inh 11µM*!, Lassa entry inh -3%&0%, Cruzain noTriton 22%&13%&7%&-11%, StopGo reporter -14%&-29% and NS1 function inh -5%&-1%.
C[N+]1(C)CCC(=C(c2ccccc2)c2ccccc2)CC1 was read as Cruzain Triton 0.2%, SARS PLP yeast 5%, RE007 growth inh -3%, Cruzain noTriton -12% and StopGo reporter -17%.
`CC(O)CNC(=O)C(=O)Nc1c2c(nn1-c1ccc(Cl)cc1)CSC2` (stereo not drawn) gave Cruzain Triton -2.5%, Lassa entry inh 0%[46.1 µM], Cruzain noTriton inconclusive and StopGo reporter -16%.
For COc1ccc(CC(=O)Nc2c(C(=O)N3CCN(c4ccccc4F)CC3)oc3ccccc23)cc1OC the results were Cruzain Triton -9.2%, Marburg entry inh inconclusive, Lassa entry inh inconclusive, Cruzain noTriton inconclusive and StopGo reporter -10%.
`Oc1ccc2c(c1)OCC1(O)Cc3cc(O)c(O)cc3C21` (stereo not drawn) gave Cruzain Triton -1.6%, RE007 growth inh 2%, Cruzain noTriton 6% and StopGo reporter -28%&-8%.
`COc1cc2ncnc(Nc3cccc(Cl)c3)c2cc1OC` gave Cruzain Triton -4.4%&-6.8%, SARS PLP yeast -2%, Marburg entry inh inconclusive, Lassa entry inh inconclusive, Cruzain noTriton 8%&9%, StopGo reporter -12%&-25% and NS1 function inh -25%.
`COc1cc(C(c2c(C)[nH][nH]c2=O)c2c(C)[nH][nH]c2=O)ccc1OC(=O)c1cccc(C)c1` gave Cruzain Triton -5.6%, Marburg entry inh -1%[46.1 µM], Lassa entry inh 1%[46.1 µM], Cruzain noTriton inconclusive and StopGo reporter -9%.
Screening C/C=C(/C)C(=O)OC(C)(C)[C@@H]1Cc2c(ccc3ccc(=O)oc23)O1 returned Cruzain Triton -3.8%, SARS PLP yeast inconclusive, RE007 growth inh 14%, Marburg entry inh -13%, Lassa entry inh -29%, Cruzain noTriton inconclusive, StopGo reporter inconclusive and NS1 function inh -66%.

Sorted by molar mass (ascending): part of the list above
For C1COC(NC(C2CC2)C2CC2)=N1 the results were Cruzain Triton -2.0%&-5.0%&-3.0%&-4.2%, SARS PLP yeast -2%, RE007 growth inh -17%, Marburg entry inh 11µM*!, Lassa entry inh -3%&0%, Cruzain noTriton 22%&13%&7%&-11%, StopGo reporter -14%&-29% and NS1 function inh -5%&-1%.
C[N+]1(C)CCC(=C(c2ccccc2)c2ccccc2)CC1 was read as Cruzain Triton 0.2%, SARS PLP yeast 5%, RE007 growth inh -3%, Cruzain noTriton -12% and StopGo reporter -17%.
`Oc1ccc2c(c1)OCC1(O)Cc3cc(O)c(O)cc3C21` (stereo not drawn) gave Cruzain Triton -1.6%, RE007 growth inh 2%, Cruzain noTriton 6% and StopGo reporter -28%&-8%.

(next part)
For CN1CCCN=C1COC(=O)C(O)(c1ccccc1)C1CCCCC1 (stereo not drawn) the results were Cruzain Triton 0.8%&4.8%, SARS PLP yeast 1%, RE007 growth inh 10%[18.4 µM], Marburg entry inh -6%&-6%&-6%&-6%&-6%, Lassa entry inh -4%, Cruzain noTriton 2%&-4%, StopGo reporter -20%&-6% and NS1 function inh inconclusive.
Screening Cc1cncn1CCc1nc2c3ccccc3nc(SCC(=O)Nc3cccc(Cl)c3)n2n1 returned Cruzain Triton -2.6%&-0.9%, SARS PLP yeast 15%, RE007 growth inh 0%, Marburg entry inh 6.5µM*, Lassa entry inh inconclusive, Cruzain noTriton -2%&11%, StopGo reporter -17%&-18% and NS1 function inh 15%.
`COc1ccc(-n2nc3c(N4CCCC(C(=O)NCc5ccccc5C)C4)nnc(C)c3c2C)cc1` (stereo not drawn) gave Cruzain Triton -8.7%, SARS PLP yeast -3%, Lassa entry inh 6.3µM*, Cruzain noTriton 14% and StopGo reporter -26%.
Screening CC(C)=CCOc1c2ccoc2cc2oc(=O)ccc12 returned Cruzain Triton -2.8%, SARS PLP yeast -9%, RE007 growth inh 6%, Marburg entry inh 23%&23%&23%, Lassa entry inh -27%, Cruzain noTriton 0%, StopGo reporter -4% and NS1 function inh -20%.
Cc1cccc2c1NC(=O)C2(c1ccc(O)cc1)c1ccc(O)cc1 was read as Cruzain Triton -9.9%, SARS PLP yeast 2%, RE007 growth inh -6%, Marburg entry inh -11%, Lassa entry inh -13%, Cruzain noTriton -8%, StopGo reporter -18% and NS1 function inh 27%.
For CCC(NC(C)C)C(O)c1ccc(O)c2[nH]c(=O)ccc12 (stereo not drawn) the results were Cruzain Triton -1.6%, SARS PLP yeast -5%, RE007 growth inh 6%, Marburg entry inh 25%, Lassa entry inh -5%, Cruzain noTriton -11%, StopGo reporter -21% and NS1 function inh 0%.
COc1ccc(-c2cc(=O)c3c(O)cc(O[C@@H]4O[C@H](CO[C@@H]5O[C@@H](C)[C@H](O)[C@@H](O)[C@H]5O)[C@@H](O)[C@H](O)[C@H]4O)cc3o2)cc1O was read as SARS PLP yeast 22%, RE007 growth inh -11%[18.4 µM], StopGo reporter -13%&-6% and NS1 function inh 6%.
`C/C=C/C(=O)N(CC)c1ccccc1C` gave Cruzain Triton -1.1%, SARS PLP yeast -1%&-5%, RE007 growth inh 0%[18.4 µM], Cruzain noTriton -17% and StopGo reporter -11%&-13%.
Screening COc1ccc(C2CNC(=O)C2)cc1OC1CCCC1 (stereo not drawn) returned Cruzain Triton inconclusive, SARS PLP yeast -18%&-2%&7%, RE007 growth inh -16%[18.4 µM], Marburg entry inh 19%&-39%&-39%&-39%&-39%&-24%&-39%&-39%&-39%&-39%&-39%, Lassa entry inh inconclusive, Cruzain noTriton inconclusive, StopGo reporter -18% and NS1 function inh 4%&-15%.
Screening COCCn1c(SCC(=O)Nc2ccc(F)c(Cl)c2)nc2c(oc3ccccc32)c1=O returned Cruzain Triton -0.1%, Marburg entry inh 12%[46.1 µM], Cruzain noTriton -3% and StopGo reporter -2%.

Screening data as filed in PubChem.
